# UUG fidelity = modulators of start codon recognition fidelity in yeast | AID 602363 | S. cerevisiae UUG-firefly luciferase reporter, luminescence/redox ratio | activity score, % at 18.7 µM | actives 0.13% (n = 350,000);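 active means replicate mean at a twofold rise or more, about +100% in these data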;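 further: firefly luciferase made from a UUG start codon reports start codon fidelity; reporter light over untreated wells divided by growth signal over untreated wells; some hits fall short of that in this replicate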
# Active calls of the source: *. An excerpt; the hit share may differ from the screen's.
UUG fidelity	Compound
18	C[C@@H](NC(=O)[C@H]1N[C@H]2c3ccc(C4=CCCCC4)c(=O)n3C[C@H]2[C@@H]1CO)c1ccccc1
-6	CCC(=O)Nc1ccc2c(c1)C(=O)N(C)C[C@@H](OC)[C@@H](C)CN[C@@H](C)CO2
-5	O=C(c1ccccc1F)N1C[C@H]2[C@@H](c3ccccc31)[C@H](CO)N2C(=O)Nc1ccccc1
-4	CCCC(=O)Nc1ccc2c(c1)OC[C@@H](C)N(C(=O)c1ccccn1)C[C@H](C)[C@@H](OC)CN(C)C2=O
-13	Cc1noc(C)c1S(=O)(=O)Nc1ccc2c(c1)C(=O)N([C@@H](C)CO)C[C@H](C)[C@H](CN(C)C(=O)NC1CCCCC1)O2
-9	COCC(=O)N1[C@@H]2CN(C(=O)Nc3cc(F)ccc3F)c3ccccc3[C@@H]2[C@@H]1CO
1	N#Cc1cccc(-c2ccc([C@H]3[C@H]4CN(S(=O)(=O)c5ccccc5)CCCCN4[C@H]3CO)cc2)c1
9	Cc1noc(C)c1S(=O)(=O)Nc1ccc2c(c1)C(=O)N([C@@H](C)CO)C[C@@H](C)[C@H](CN(C)C(=O)Nc1ccc3c(c1)OCO3)O2

# (listing goes on)
UUG fidelity	Compound
-5	O=C(C[C@@H]1CC[C@@H]2[C@H](COC[C@H](O)CN2C(=O)Nc2cccc(F)c2)O1)NCCCN1CCOCC1
-10	OC[C@H]1[C@@H](c2ccc(-c3ccccc3)cc2)[C@H]2CN(CCC(F)(F)F)CCCCN21
-6	O=C(c1cccc(F)c1)N1CCCCN2[C@@H](CO)[C@H](c3ccc(-c4ccc(F)cc4)cc3)[C@@H]2C1
-15	CO[C@@H]1CN(C)C(=O)c2cc(NS(=O)(=O)c3ccccc3C)ccc2OC[C@@H](C)NC[C@H]1C
-16	COc1ccc(-c2ccc([C@@H]3[C@@H](CO)N4CCCCN(C(=O)NC(C)C)C[C@H]34)cc2)cc1
18	C[C@H]1CN([C@@H](C)CO)C(=O)Cc2cc(NC(=O)C3CC3)ccc2O[C@@H]1CN(C)C(=O)Nc1ccccc1
0	Cc1ccccc1S(=O)(=O)N1C[C@@H](O)COC[C@H]2O[C@H](CC(=O)N3CCOCC3)CC[C@@H]21
17	CN1C(=O)c2cc(NS(=O)(=O)c3ccc(Cl)cc3)ccc2OC[C@H]2O[C@H](CC(=O)O)CC[C@H]21

# The list continues.
UUG fidelity	Compound
-12	CO[C@@H]1CN(C)C(=O)c2cc(NC(=O)C3CCOCC3)ccc2OC[C@@H](C)N(Cc2ccc(F)cc2)C[C@H]1C
9	Cc1ccccc1-c1ccc([C@@H]2[C@H](CO)N3CCCCN(C(=O)Nc4cccc(F)c4)C[C@@H]23)cc1
-3	CO[C@@H]1CN(C)C(=O)c2cc(NS(=O)(=O)c3ccccc3C)ccc2OC[C@@H](C)NC[C@@H]1C
6	C[C@@H]1CN([C@H](C)CO)C(=O)c2cc(NC(=O)Nc3ccc(C(F)(F)F)cc3)ccc2O[C@H]1CN(C)C
4	CCC(=O)Nc1ccc2c(c1)OC[C@@H](C)N(Cc1ccccc1OC)C[C@@H](C)[C@H](OC)CN(C)C2=O
-2	C[C@H](CO)N1C[C@H](C)[C@@H](CN(C)S(C)(=O)=O)Oc2c(NC(=O)NC3CCCCC3)cccc2C1=O
2	COCC(=O)Nc1ccc2c(c1)[C@@H]1C[C@H](CC(=O)N3CCc4ccccc4C3)O[C@H](CO)[C@@H]1O2
20	O=C(CN1CCOCC1)N1CCCCN2[C@@H](CO)[C@@H](c3ccc(C#Cc4ccccc4)cc3)[C@@H]2C1

# Following part:
UUG fidelity	Compound
-13	OC[C@@H]1Nc2ccc(-c3ccc(F)cc3)cc2[C@H]2[C@@H]1CCN2Cc1ccc(F)cc1
7	C[C@H](CO)N1C[C@H](C)[C@H](CN(C)S(C)(=O)=O)Oc2c(NC(=O)Nc3ccccc3)cccc2C1=O
-3	COc1ccc(CN(C)C[C@H]2Oc3c(NS(=O)(=O)c4ccc(Cl)cc4)cccc3C(=O)N([C@H](C)CO)C[C@H]2C)cc1
1	CNC(=O)C[C@@H]1CC[C@H]2[C@@H](COC[C@@H](O)CN2Cc2ccncc2)O1
6	O=C(Nc1ccc(F)cc1)N1CCCCN2[C@H](C1)[C@H](c1ccc(-c3ccncc3)cc1)[C@@H]2CO
-1	COc1ccc(CNC(=O)C[C@@H]2C[C@H]3c4cc(NS(C)(=O)=O)ccc4O[C@H]3[C@H](CO)O2)cc1
0	CCCC#Cc1ccc([C@@H]2[C@@H](CO)N3CCCCN(S(=O)(=O)Cc4ccccc4)C[C@@H]23)cc1
1	CO[C@H]1CN(C)C(=O)c2cc(NC(=O)Nc3ccccc3F)ccc2OC[C@H](C)N(Cc2ccccc2C(=O)O)C[C@H]1C

# (continued)
UUG fidelity	Compound
5	Cc1ccc(OC(=O)N(C)C[C@@H]2OCc3ccccc3-c3ccccc3C(=O)N([C@H](C)CO)C[C@@H]2C)cc1
-13	COc1ccccc1C#Cc1ccc2c(c1)[C@H]1[C@H](CCN1C(=O)c1ccncc1)[C@H](CO)N2
-6	CC(=O)N1[C@@H](CO)[C@@H](c2ccc(C3=CCCC3)cc2)[C@@H]1CNC(=O)CN(C)C
8	COc1ccc(S(=O)(=O)Nc2ccc3c(c2)C(=O)N([C@H](C)CO)C[C@@H](C)[C@@H](CN(C)S(=O)(=O)c2c(C)noc2C)O3)cc1
-18	CCN(C[C@@H]1[C@@H](c2ccccc2)[C@@H](CO)N1C(C)=O)C(=O)c1ccccn1
-1	CCCC(=O)Nc1ccc2c(c1)OC[C@H](C)N(Cc1cccc(F)c1)C[C@H](C)[C@H](OC)CN(C)C2=O
-12	CO[C@@H]1CN(C)C(=O)c2ccc(NS(C)(=O)=O)cc2OC[C@H](C)N(C(=O)C2CCC2)C[C@H]1C
-18	C[C@H]1CN([C@@H](C)CO)C(=O)c2cccc(NC(=O)C3CCCCC3)c2O[C@H]1CN(C)Cc1ccc(C(=O)O)cc1

# More compounds
UUG fidelity	Compound
3	CO[C@@H]1CN(C)C(=O)c2ccc(NC(=O)Nc3ccccc3)cc2OC[C@H](C)N(C(=O)Nc2c(C)noc2C)C[C@@H]1C
16	Cc1noc(C)c1S(=O)(=O)Nc1ccc2c(c1)CC(=O)N([C@H](C)CO)C[C@H](C)[C@@H](CN(C)C)O2
-8	O=C(C[C@H]1CC[C@@H]2[C@H](COC[C@@H](O)CN2C(=O)Nc2ccccc2)O1)NCc1ccccc1F
-3	CCCNC(=O)C[C@@H]1CC[C@H]2[C@@H](COC[C@@H](O)CN2Cc2cccc(F)c2)O1
-12	C[C@H](CO)N1C[C@H](C)[C@H](CN(C)S(=O)(=O)c2ccc(Cl)cc2)Oc2ccc(NC(=O)Cc3ccccc3)cc2CC1=O
22	COCCNC(=O)C[C@@H]1CC[C@@H]2[C@@H](COc3ccc(NC(=O)C4CCOCC4)cc3C(=O)N2C)O1
11	CN1c2ccc(-c3ccc(F)cc3)cc2[C@@H]2[C@@H](CCN2C(=O)Cc2ccccn2)[C@@H]1CO
20	O=C(c1cccnc1)N1C[C@@H]2[C@H](c3ccccc31)[C@H](CO)N2C(=O)CN1CCOCC1

# Carrying on:
UUG fidelity	Compound
-2	O=C(C1CC1)N1[C@@H]2CNc3ccccc3[C@@H]2[C@@H]1CO
-14	OC[C@H]1[C@@H](c2ccc(Br)cc2)[C@@H]2CNCCCCN12
4	CC(=O)NC[C@H]1[C@@H](c2ccc(C3=CCCCC3)cc2)[C@@H](CO)N1C(=O)NC(C)C
18	CN(C)CC#Cc1ccc([C@@H]2[C@@H](CO)N3CCCCN(C(=O)C4CC4)C[C@H]23)cc1
-2	Cc1ccc(S(=O)(=O)N(C)C[C@H]2Oc3c(NC(=O)C4CC4)cccc3C(=O)N([C@H](C)CO)C[C@H]2C)cc1
-8	CNC[C@@H]1Oc2c(NS(=O)(=O)c3ccc(C)cc3)cccc2C(=O)N([C@H](C)CO)C[C@@H]1C
5	CC(=O)NC[C@H]1[C@H](c2ccc(C3=CCCCC3)cc2)[C@@H](CO)N1C(=O)NC(C)C
-4	CC(C)NC(=O)Nc1ccc2c(c1)C(=O)N([C@@H](C)CO)C[C@@H](C)[C@@H](CN(C)Cc1ccc(Oc3ccccc3)cc1)O2

# Next part
UUG fidelity	Compound
-5	CC(=O)N1[C@H](CO)[C@@H](c2ccccc2)[C@H]1CN(C)S(=O)(=O)c1ccccc1
1	CC(=O)NC[C@H]1[C@@H](c2ccccc2)[C@@H](CO)N1C(=O)Cc1cccnc1
-1	C[C@@H]1CN([C@@H](C)CO)C(=O)Cc2cc(NC(=O)CCN3CCOCC3)ccc2O[C@@H]1CN(C)C(=O)Nc1ccccc1
13	COc1ccc(-c2ccc([C@H]3[C@@H](CO)N4CCCCN(C(=O)c5ccc6c(c5)OCO6)C[C@@H]34)cc2)cc1
12	C[C@H]1CN([C@@H](C)CO)C(=O)c2cc(NS(=O)(=O)c3cccs3)ccc2O[C@@H]1CN(C)C(=O)NC1CCCCC1
-14	Cc1ccc(S(=O)(=O)Nc2ccc3c(c2)CC(=O)N([C@H](C)CO)C[C@H](C)[C@H](CN(C)C(=O)Nc2ccc(F)cc2)O3)cc1
4	CCC(=O)Nc1ccc2c(c1)C(=O)N(C)C[C@@H](OC)[C@@H](C)CN(C(=O)c1cnccn1)[C@H](C)CO2
8	CCCNC(=O)N1C[C@H](C)[C@H](OC)CN(C)C(=O)c2cc(NC(=O)CC)ccc2OC[C@H]1C

# Continuation:
UUG fidelity	Compound
11	COc1ccc(S(=O)(=O)N2CCCCN3[C@H](CO)[C@H](c4ccc(C#CCC(C)C)cc4)[C@H]3C2)cc1
24	C[C@H](CO)N1C[C@H](C)[C@@H](CN(C)Cc2ccc(Oc3ccccc3)cc2)Oc2ccc(NC(=O)NC3CCCCC3)cc2C1=O
17	C[C@H](CO)N1C[C@H](C)[C@@H](CN(C)C(=O)NC2CCCCC2)Oc2ccc(NS(=O)(=O)c3ccc(F)cc3)cc2CC1=O
-4	C/C=C/c1ccc([C@H]2[C@@H](CO)N(C(=O)CC)[C@@H]2CNC(=O)CC2CC2)cc1
17	COCC(=O)Nc1ccc2c(c1)OC[C@H](C)N(C(=O)c1cnccn1)C[C@H](C)[C@H](OC)CN(C)C2=O
8	CN1CCCCN2[C@@H](CO)[C@@H](c3ccc(-c4cccnc4)cc3)[C@@H]2C1
-5	CCCNC(=O)N1[C@@H](CO)[C@@H](c2ccc(C3=CCCC3)cc2)[C@@H]1CNC(=O)CC
-7	CO[C@H]1CN(C)C(=O)c2cc(NC(=O)C3CCCC3)ccc2OC[C@@H](C)N(C)C[C@H]1C

# Following part
UUG fidelity	Compound
4	CCCC(=O)Nc1ccc2c(c1)C(=O)N(C)C[C@@H](OC)[C@H](C)CN(Cc1cccc(F)c1)[C@@H](C)CO2
-6	Cc1noc(C)c1NC(=O)N(C)C[C@H]1Oc2c(NC(=O)c3nc4ccccc4s3)cccc2C(=O)N([C@H](C)CO)C[C@H]1C
21	O=C(Nc1cccc(F)c1)N1CCCCN2[C@H](C1)[C@@H](c1ccc(-c3ccccc3F)cc1)[C@@H]2CO
-7	CO[C@@H]1CN(C)C(=O)c2ccc(NC(=O)C3CCCC3)cc2OC[C@@H](C)N(C(=O)c2ccccc2)C[C@H]1C
-11	CN1CCCCN2[C@@H](CO)[C@H](c3ccc(-c4ccc(F)cc4)cc3)[C@@H]2C1
-4	COc1ccc(CN2[C@@H]3CNc4ccccc4[C@@H]3[C@@H]2CO)cc1
-9	Cn1cnc(CCNC(=O)C[C@H]2CC[C@H]3[C@@H](COC[C@H](O)CN3C(=O)Nc3ccc(Cl)cc3)O2)c1
-4	O=S(=O)(c1ccc(F)cc1)N1CC[C@@H]2[C@@H](CO)Nc3ccc(-c4ccc(F)cc4)cc3[C@@H]21

# Carrying on.
UUG fidelity	Compound
2	C[C@@H]1CN([C@H](C)CO)C(=O)c2cccc(NC(=O)C3CCOCC3)c2O[C@@H]1CN(C)C
-9	CO[C@H]1CN(C)C(=O)c2cc(NC(=O)NC3CCCCC3)ccc2OC[C@H](C)NC[C@@H]1C
4	CCCNC(=O)Nc1ccc2c(c1)OC[C@H](C)N(Cc1ccccc1)C[C@H](C)[C@H](OC)CN(C)C2=O
-4	C[C@@H](NC(=O)C[C@@H]1CC[C@H]2[C@@H](COC[C@H](O)CN2C(=O)Nc2ccccc2)O1)c1ccccc1
25	CO[C@H]1CN(C)C(=O)c2cc(NC(=O)Nc3ccccc3)ccc2OC[C@H](C)N(C(=O)Nc2c(C)noc2C)C[C@H]1C
-4	C[C@H]1CN([C@@H](C)CO)C(=O)c2ccccc2-c2ccccc2CO[C@H]1CN(C)S(=O)(=O)c1ccc(F)cc1
-1	O=C(C1CC1)N1CCCCN2[C@H](CO)[C@H](c3ccc(C#CC4CCCC4)cc3)[C@@H]2C1
28	CO[C@@H]1CN(C)C(=O)c2ccc(NC(=O)C3CCCCC3)cc2OC[C@H](C)N(Cc2nccs2)C[C@@H]1C

# Part of the list above, in CSV form:
Structure,UUG fidelity
C[C@@H]1CN([C@H](C)CO)C(=O)c2cccc(NC(=O)C3CCOCC3)c2O[C@@H]1CN(C)C,2
CO[C@H]1CN(C)C(=O)c2cc(NC(=O)NC3CCCCC3)ccc2OC[C@H](C)NC[C@@H]1C,-9
CCCNC(=O)Nc1ccc2c(c1)OC[C@H](C)N(Cc1ccccc1)C[C@H](C)[C@H](OC)CN(C)C2=O,4
C[C@@H](NC(=O)C[C@@H]1CC[C@H]2[C@@H](COC[C@H](O)CN2C(=O)Nc2ccccc2)O1)c1ccccc1,-4

# Six consecutive entries out of the list so far, quoted:
UUG fidelity	Compound
-4	O=S(=O)(c1ccc(F)cc1)N1CC[C@@H]2[C@@H](CO)Nc3ccc(-c4ccc(F)cc4)cc3[C@@H]21
2	C[C@@H]1CN([C@H](C)CO)C(=O)c2cccc(NC(=O)C3CCOCC3)c2O[C@@H]1CN(C)C
-9	CO[C@H]1CN(C)C(=O)c2cc(NC(=O)NC3CCCCC3)ccc2OC[C@H](C)NC[C@@H]1C
4	CCCNC(=O)Nc1ccc2c(c1)OC[C@H](C)N(Cc1ccccc1)C[C@H](C)[C@H](OC)CN(C)C2=O
-4	C[C@@H](NC(=O)C[C@@H]1CC[C@H]2[C@@H](COC[C@H](O)CN2C(=O)Nc2ccccc2)O1)c1ccccc1
25	CO[C@H]1CN(C)C(=O)c2cc(NC(=O)Nc3ccccc3)ccc2OC[C@H](C)N(C(=O)Nc2c(C)noc2C)C[C@H]1C

# Screens from PubChem BioAssay.
